Calb FLC = C. albicans growth inhibition with fluconazole, primary screen, CaCi-2 strain, Alamar Blue fluorescence. C. albicans CaCi-2 (fluconazole-resistant clinical isolate) + fluconazole, 48 h. growth inhibition, % (no concentration beside the values). 300,000 compounds, 0.57% hits. AID 1979, 2009;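 active = most replicates above 75%; inconclusive = exactly half above 75%; inactive = most below 75%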;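 note: all wells also contain fluconazole at 8 µg/ml as a sub-toxic cotreatment; 0% = median of DMSO wells and 100% = median of geldanamycin control wells; wells of about 8 µL received 7.5 nL stock; the first replicate is given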
LANA-H2A inh = blockers of LANA interaction with H2A/H2B – biochemical, FP readout, HTS, primary screen. inhibition, % (concentration not given with the values). cell-free LANA-H2A/H2B peptide, fluorescence polarization. 320,000 compounds, 0.6% hits. AID 2629, 2010. Protein LANA1 (Human herpesvirus 8 type P (isolate GK18)), Q9QR71; in the data active = inhibition mostly above about 10%, no sharp cut-off; inactive = mostly below about 6.7%;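 note: stock transfer was 7.5 nL into about 10 µL; 0% = median of vehicle wells and 100% = median of positive control wells; one replicate is shown; the record names a cut of 25% in any replicate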
Beta cell apopt = inhibitors of cytokine-induced beta cell apoptosis, primary screen, luminescence | INS-1E cytokine-induced death, ATP luminescence, 48 h; percent of positive-control rescue, neutral wells zero | protection from apoptosis, % (concentration not given with the values) | 300,000 compounds, 0.8% hits | AID 435005, 2010;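 active = all replicates at 75% or more, or half of them and the mean; inconclusive = half reach 75% but not the mean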;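 note: 0% = cytokine-treated negative control wells and 100% = positive control rescue; higher means more ATP so stronger rescue from cytokine killing; wells of about 40 µL received 100 nL stock; the first replicate is given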
ALR inh = inhibitors of human ALR sulfhydryl oxidase, primary screen, biochemical, H2O2 detection, HRP-luminol luminescence, single point | purified ALR, DTT oxidation | inhibition, % (test concentration not listed) | 290,000 compounds, 3.8% hits;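 active = mean and each replicate at 75% or more; inconclusive = only one of the two met; inactive = neither met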;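 note: stock transfer was 7.5 nL into about 7.5 µL; 0% = neutral wells and 100% = wells with inactivated enzyme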
Target sequence (P55789 whole entry, looked up): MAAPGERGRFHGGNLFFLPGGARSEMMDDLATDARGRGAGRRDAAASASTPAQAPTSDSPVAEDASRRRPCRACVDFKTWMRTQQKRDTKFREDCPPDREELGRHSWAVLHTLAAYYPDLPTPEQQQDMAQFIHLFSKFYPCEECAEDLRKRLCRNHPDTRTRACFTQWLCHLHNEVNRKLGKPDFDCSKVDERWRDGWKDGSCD
Ecoli rRNA inh = reduced GFP signal of wild-type E. coli, primary screen, bacterial rRNA inhibitor project, GFP/RFP fluorescence, OD600, single point; E. coli WT GFP vs humanized-ribosome RFP mutants, 24 h; active compounds read low; DMSO median 0, no signal -100; GFP signal change (wild-type ribosome), % (test concentration not listed); 350,000 compounds, 1.6% hits; AID 720706, 2013;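 active = significant combined selectivity score with lowered wild-type GFP, culture density cut under 30%, mutant RFP and density less affected; inactive = any of these conditions unmet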; note: one replicate is shown; some compounds called inactive have numbers as strong as hits
T cruzi inh = inhibitors of intracellular T. cruzi growth, primary screen, luminescence, NIH3T3 host cells. 300,000 compounds, 1.4% hits. AID 1885, 2009. inhibition, % (test concentration not listed). T. cruzi beta-gal in NIH3T3, 90 h;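 active = mean inhibition across valid replicates above about 55%, limit read from the data; inconclusive = mean below that limit but half or more replicates reach it; inactive = mean below it, under half of replicates reach it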;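 note: signal also drops with host cell toxicity which is not excluded here; 0% = plate median of DMSO wells and 100% = zero luminescence signal; higher percent means less beta-gal luminescence so fewer parasites; stock transfer was 50 nL into about 50 µL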
Beta2AR agonist = beta2AR agonists driving receptor internalization, primary screen, cell-based, FAP fluorogen, flow cytometry. Am2.2-beta2AR cells; reference of the scale not given here. response, % (concentration not given with the values). 340,000 compounds, 0.43% hits. AID 504454, 2011;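 active = response above a set limit, near 3 SD of response in nonfluorescent compounds, cut at about 42% in these data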;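 note: stock transfer was 100 nL into about 11 µL; a reference agonist was the positive control; negative values mostly stem from fluorescent compounds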
Target sequence (P07550 whole entry, looked up): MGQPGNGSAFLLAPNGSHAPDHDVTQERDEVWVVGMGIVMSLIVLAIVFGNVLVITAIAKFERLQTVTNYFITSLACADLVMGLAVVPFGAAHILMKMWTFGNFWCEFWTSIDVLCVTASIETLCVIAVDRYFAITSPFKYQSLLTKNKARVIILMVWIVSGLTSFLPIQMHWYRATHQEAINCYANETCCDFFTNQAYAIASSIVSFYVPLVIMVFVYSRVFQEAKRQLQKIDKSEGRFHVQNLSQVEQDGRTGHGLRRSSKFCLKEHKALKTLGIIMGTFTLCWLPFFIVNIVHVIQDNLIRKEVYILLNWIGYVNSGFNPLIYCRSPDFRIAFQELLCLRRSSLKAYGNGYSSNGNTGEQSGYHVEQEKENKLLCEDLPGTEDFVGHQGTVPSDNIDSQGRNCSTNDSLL
A1 inh = caspase 3/7 activation in MEF A1-2A-BIM cells, primary screen, A1 inhibitor project, cell-based, luminescence, HTS. Caspase-Glo 3/7 luminescence, 3 h; percent of clofoctol response, vehicle zero. caspase activation, % (concentration not given with the values). 330,000 compounds, 0.066% hits. AID 2462, 2010;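 active = over half of replicate activation scores above 10%, or exactly half above 10 with the replicate mean above 10; inconclusive = replicate mean below 10 yet half the replicates above 10; inactive = over half of replicates below 10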;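 note: wells of about 30 µL received 50 nL stock; many hits fall short of the cut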
Ecoli rRNA inh OD600 = further read-out of Ecoli rRNA inh, marked with its call; OD600 change, %; measured here: OD600 growth;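 optical density of the mix in the first replicate; 0 = DMSO median and -100 = no signal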
Ecoli rRNA inh RFP = second read-out of Ecoli rRNA inh, no call of its own (marks repeat the call); RFP signal change, %; measured here: RFP humanized mutant strains;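 first replicate; 0 = DMSO median and -100 = no signal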
* marks the source's active call; other numbers are inactive results; ? = inconclusive; . = no result given. Some of the compounds tested (hit frequency here may not be typical).

SMILES	Calb FLC	LANA-H2A inh	Beta cell apopt	ALR inh	Ecoli rRNA inh	Ecoli rRNA inh OD600	Ecoli rRNA inh RFP	T cruzi inh	Beta2AR agonist	A1 inh
CCCn1c(C2CCCN2c2nc(C)cs2)nc2cc(Cl)c(Cl)cc21 (stereo not drawn)	5	0.0	1	-16	0	12	5.3	-5	9	0.9
COc1ccc(NC(=O)CN2CCN(CC(=O)Nc3ccc4c(c3)OCO4)CC2)cc1	.	-0.2	2	0	.	.	.	.	-1	-0.8
Cc1ccc(NC(=O)C[n+]2ccn(C3=C([O-])c4ccccc4C3=O)c2)cc1	7	0.7	-2	-5	2	5	-1.8	4	-6	0.1
C/C(Cc1ccccc1)=N\NC(=O)c1ccccn1	31	-4.1	-4	-21	7	7	2.2	-8	-1	0.0
CC1(N2CCOCC2)C(=O)c2ccccc2C1=O	8	-2.9	0	-11	12	11	0.0	-31	1	0.7
O=C1C(=O)N(CCCN2CCOCC2)C(c2ccc(Cl)cc2)/C1=C(/O)c1ccc(F)cc1 (stereo not drawn)	2	-0.1	-3	-3	13	9	-2.4	-15	1	0.1
O=[N+]([O-])c1cccnc1N1CCN(Cc2ccc3c(c2)OCO3)CC1	-71	0.3	0	-13	-12	-12	0.2	-1	-3	1.8
COCCN(Cc1nnc(-c2cccs2)o1)C(=O)c1cccc(S(=O)(=O)N2CCOCC2)c1	.	-2.4	-7	-2	6	8	-0.8	.	-20	1.2
COc1ccc(N2C(=O)Cc3c2nc(N)c(C#N)c3N)cc1	-5	-2.2	-3	.	6	0	1.7	-14	6	-0.9
O=C(NCC1CCCO1)c1cccc(F)c1 (stereo not drawn)	1	-4.6	-8	-7	.	.	.	-1	2	-0.6
Cc1ccc(C2CCN(C(=S)NC(C)C)C2)cc1 (stereo not drawn)	13	-0.5	-7	0	-5	-3	-7.2	-11	1	0.8
Brc1cccc(CNCc2ccncc2)c1	14	1.9	-2	-2	10	6	-0.8	51	6	0.9
Cc1cccc(NC(=S)NC2CCCC2)c1	?	1.7	0	.	.	.	.	-6	6	-0.8
C=CCn1c(SCC(=O)N2CC(=O)Nc3ccccc32)nc2scc(-c3ccccc3)c2c1=O	2	-0.5	7	6	-10	-10	18	17	5	0.1
CC(=O)NS(=O)(=O)c1ccc(NC(=O)c2cccc3ccccc23)cc1	-19	1.3	-1	-53	-10	16	6.2	19	-4	-0.2
COc1cc(/C=N/N2CCOCC2)ccc1OCc1ccccc1	0	2.5	6	-5	0	5	-0.9	1	6	-2.2
CC(C)[C@H](NC(=O)c1ccccc1)C(=O)OCC(=O)NCCc1ccc(F)cc1	18	3.7	-4	-5	.	.	.	8	-1	-0.8
O=C(CSc1nc2ccccc2n1CC(=O)N1CCOCC1)N1CCCC1	-6	-11	-14	1	.	.	.	-10	-6	0.0
Cc1c(C(=O)Nc2ccccc2)sc2nc[nH]c(=O)c12	-13	2.9	0	-4	.	.	.	-10	3	-0.9
CC(C)CC(=O)Nc1ccc(-c2cn3ccsc3n2)cc1	.	1.1	1	-12	.	.	.	.	1	-5.3
CCCCC(=O)Nc1ccc(C(=O)NNC(=S)NC(=O)c2cccs2)cc1	-7	1.0	17	47	.	.	.	-17	-12	-1.0
CC(CN1CCCC1)OC(=O)COc1ccccc1 (stereo not drawn)	1	3.1	0	-16	.	.	.	-2	17	0.5
O=Cc1c(Nc2ccccc2Cl)nc2ccccn2c1=O	2	1.6	-5	-9	14	9	1.8	-4	3	-0.6
CCOC(=O)C(NC(=O)NCc1ccc(OC)cc1)(OCC)C(F)(F)F (stereo not drawn)	12	-1.8	0	0	-10	-1	2.0	0	0	0.0
CCOC(=O)c1nnn(CC(=O)NC(=O)Nc2cccc(CC)c2)c1C(=O)OCC	7	3.4	0	-12	7	10	7.7	-3	-1	-0.8
CC1(C)CC(NC(=O)C2CCC(=O)N(Cc3ccccc3F)C2)CC(C)(C)C1 (stereo not drawn)	-12	.	.	.	-8	-9	0.5	11	-7	.
C#CCOC(=O)c1cc(Cl)c(=O)n(Cc2ccc(Cl)cc2Cl)c1	-13	-6.2	-1	-2	-15	-20	-6.1	0	-3	2.2
CCOc1ccccc1C1NC(=O)NC(C)=C1C(=O)OCc1ccco1 (stereo not drawn)	23	-1.6	-7	1	.	.	.	-4	-6	-0.3
CCc1ccc(N2CC(C(=O)Nc3ccc(S(=O)(=O)N4CCOCC4)cc3)CC2=O)cc1 (stereo not drawn)	2	-2.4	-5	-1	1	1	-1.6	1	-11	0.3
Cc1ccc(S(=O)(=O)CCC(=O)Nc2nc(-c3cccnc3)cs2)cc1	4	-3.0	-21	-7	8	17	-1.0	-7	-4	1.0
CN1C(=O)N(C)C(NC(=O)Nc2ccccc2)C1NC(=O)Nc1ccccc1 (stereo not drawn)	-12	0.1	0	-2	.	.	.	-6	-1	0.7
CCC(C)NC(=O)C(NS(=O)(=O)c1cccc2nsnc12)c1ccccc1 (stereo not drawn)	0	-2.5	.	-7	.	.	.	-1	2	0.6
CC(C)OC(=O)/C(C#N)=C/c1ccc(-c2ccc(SC(F)F)cc2)o1	4	-18	-3	-3	.	.	.	4	22	0.2
Cc1c(C(=O)Nc2ccncc2)oc2ccccc12	-15	-4.1	3	0	.	.	.	-19	-9	-0.2
CCn1nc(C)c(NC(=O)/C=C/c2ccc(OC)c(COc3ccc(Br)cc3)c2)c1C	47	0.9	6	-15	.	.	.	68*	13	-0.4
CCN(CC(=O)Nc1ccccc1OC)C(=O)c1ccccc1Sc1ccccc1C#N	.	.	1	4	1	-17	5.3	.	-12	0.2
CN(CC(=O)Nc1ccccc1C(F)(F)F)C(=O)c1cc([N+](=O)[O-])ccc1N1CCOCC1	-2	0.9	2	-8	0	4	1.2	-4	-2	-1.2
Brc1c(CSc2nncn2-c2ccccc2)nc2sccn12	-1	0.3	-9	-2	.	.	.	-12	-15	-0.5
CCCC(=O)Nc1ccc(C(=O)NNC(=S)NC(=O)c2cccs2)cc1	-6	2.7	.	14	.	.	.	7	0	0.5
COc1ccc(S(=O)(=O)N2CCNCC2)cc1	3	4.7	-6	-3	5	6	-3.4	-8	4	1.1
CC(NC(=O)OCc1ccccc1)C(=O)OCN1C(=O)c2ccccc2C1=O (stereo not drawn)	11	-3.9	-7	1	.	.	.	1	-9	1.4
O=S(=O)(N/N=C\c1cn(-c2ccccc2)nc1-c1ccccc1)c1ccccc1	6	-0.9	0	3	.	.	.	16	-16	-0.5
Cc1cc(CC(=O)O)c2oc(-c3ccoc3)cc(=O)c2c1	8	1.3	-4	5	10	0	14	-5	1	0.0
O=C(COc1cccc(Br)c1)N/N=C1\CCCc2ccccc21	-14	-0.6	-2	5	4	0	0.7	0	2	-1.3
O=C(O)CN1C(=O)SC(Nc2ccccc2C(=O)O)C1=O (stereo not drawn)	13	-1.0	-2	10	.	.	.	-28	-1	1.4
N#Cc1c(SCC(N)=O)nc2c(c1-c1ccc(O)cc1)CCCC2	6	0.0	8	-4	5	-8	5.4	25	-2	-0.4
C=CCn1c(=S)[nH]c2scc(-c3ccco3)c2c1=O	.	0.4	2	98*	11	3	1.2	.	5	0.0
CSC1=N/C(=C\c2cccnc2)C(=O)N1c1ccccc1	-16	-0.2	1	0	2	9	-8.7	-2	14	0.5
Cc1ccc(OC(C)C(=O)N(C)c2ccccc2)c([N+](=O)[O-])n1 (stereo not drawn)	.	0.8	2	-1	-2	8	0.8	.	7	-0.9
Cc1ccc(C2CC2/C(=N/O)c2ccc(F)cc2)cc1 (stereo not drawn)	-15	-1.8	-4	-11	-9	-7	1.9	17	-10	-1.8
COc1ccc(-c2[nH]ncc2/C=C(\C#N)C(=O)NC2CC2)cc1	-5	1.4	-1	-3	.	.	.	-14	-11	0.2
COc1ccc(Cn2nnnc2C(c2cccs2)N2CCSCC2)cc1 (stereo not drawn)	?	-0.4	.	-3	.	.	.	0	1	1.0
O=C(OCc1ccccc1F)c1cc([N+](=O)[O-])ccc1N1CCOCC1	-4	.	3	.	-16	-12	0.6	9	-19	0.6
Cc1ccc(CNc2cnccn2)s1	-1	-1.1	-4	-5	5	5	0.1	-14	7	-0.3
Cc1ccccc1C1c2[nH]c3ccccc3c2C[C@H]2C(=O)N(C3CC3)CC(=O)N12 (stereo partly drawn)	15	3.0	2	-14	-5	-1	3.0	2	6	0.0
COc1ccc(CN2CCN(C(=O)CC(C)C)CC2)c2ccccc12	-10	1.2	-4	-7	.	.	.	-15	29	0.9
CCOC(=O)c1[nH]c(C)c(/C=N/O)c1C	-2	2.7	-5	-13	.	.	.	-12	-5	-0.6
COCCCn1c(=O)c2sccc2n2c(CCCC(=O)NCC3CCCO3)nnc12 (stereo not drawn)	10	0.6	-2	-3	6	3	0.8	-38	-7	0.9
CC(C)C(=O)N1CCN(c2ccccc2NC(=O)c2ccc(C#N)cc2F)CC1	9	1.4	-9	-20	-13	-9	-0.3	14	-6	0.4
CCOC(=O)C1=C(Nc2ccc(Cl)cc2)OCC1=O	2	-0.2	-2	-1	-7	-5	-5.4	-20	12	-0.2
Continued.
SMILES	Calb FLC	LANA-H2A inh	Beta cell apopt	ALR inh	Ecoli rRNA inh	Ecoli rRNA inh OD600	Ecoli rRNA inh RFP	T cruzi inh	Beta2AR agonist	A1 inh
COc1ccccc1NS(=O)(=O)c1ccc(C(=O)NCC2(N(C)C)CCCCC2)cc1	5	3.9	-2	2	0	1	-1.7	-5	1	0.7
Cc1nn(Cc2ccccc2Cl)c(C)c1C(=O)NCCN1C(=O)S/C(=C\c2ccccc2)C1=O	12	0.2	6	9	3	-17	-7.5	8	-1	0.3
Cn1c(=O)c(=O)n(C)c2cc(S(=O)(=O)Nc3ccc(OC(F)(F)F)cc3)ccc21	?	1.0	2	.	11	-2	0.9	-21	1	1.0
CCc1ccccc1NC(=O)CCC(=O)Nc1nnc(C(C)C)s1	5	1.0	-8	5	10	8	2.2	-23	-7	-0.5
COCCNC(=O)c1cc(-c2ccccc2)nn1CC1CC(c2cccnc2)=NO1 (stereo not drawn)	-2	1.5	-1	-12	.	.	.	-4	-6	0.9
CCOc1ccc2nc(N/C(N)=N/S(C)(=O)=O)nc(C)c2c1	2	0.5	-2	-10	6	2	-5.2	7	-2	0.4
CCc1ccc(N2CC(C(=O)NCc3ccco3)CC2=O)cc1 (stereo not drawn)	17	-2.8	-9	8	.	.	.	6	3	0.8
Cc1ccc(C)c(N(CC(=O)NC2CCCCC2)C(=O)CNC(=O)c2ccco2)c1	0	-1.2	-2	-2	5	1	-0.5	-3	1	0.4
